GIV-Gai inh: inhibitors of GIV peptide binding to Galpha-i3, primary screen, biochemical, fluorescence polarization, FITC-GIV GBA peptide, rat Galphai3; Guanine nucleotide-binding protein G(i) subunit alpha-3 (Rattus norvegicus), P08753; 90 min; active compounds read low; scaled: aluminum fluoride 0%, vehicle 100%; percent of control (FP), % (no concentration beside the values); hit rate 0.42% among 210,000; AID 1224905, 2016;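 active means replicate mean at 85% of control or lower, very high polarization wells dropped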;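 further: wells of about 15 µL received 100 nL stock; the first replicate is given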
Target sequence (P08753 whole entry, looked up): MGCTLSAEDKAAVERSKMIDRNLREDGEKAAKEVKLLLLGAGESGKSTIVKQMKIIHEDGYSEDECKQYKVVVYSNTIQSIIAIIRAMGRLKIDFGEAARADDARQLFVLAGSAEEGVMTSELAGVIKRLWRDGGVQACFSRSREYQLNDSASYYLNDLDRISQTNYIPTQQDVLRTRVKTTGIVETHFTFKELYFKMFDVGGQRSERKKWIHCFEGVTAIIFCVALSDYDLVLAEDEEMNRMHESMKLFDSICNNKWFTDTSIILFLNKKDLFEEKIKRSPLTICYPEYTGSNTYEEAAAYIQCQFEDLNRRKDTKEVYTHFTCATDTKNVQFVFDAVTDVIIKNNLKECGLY
Starred values were filed as active, the others as inactive.

SMILES	GIV-Gai inh
Cc1nnc(-c2ccc(S(=O)(=O)N3CCCCC3)o2)o1	101
COc1ccc(C2/C(=C(/O)c3ccccc3)C(=O)C(=O)N2CCNC(C)=O)cc1 (centres undefined)	104
S=c1[nH]nc(-c2ccco2)n1-c1ccc(Oc2ccccc2)cc1	104
Cn1c(=O)c2c(nc3n(-c4cccc5ccccc45)c(-c4ccc(Br)cc4)cn23)n(C)c1=O	110
CCn1nnc2c(Nc3ccc(Cl)cc3)ncnc21	103
COc1ccc(S(=O)(=O)N2CCC[C@@H]2C(=O)NCc2csc(C)n2)cc1OC	97
c1ccc(-c2nc3cc(-c4noc(C5CCC5)n4)ccc3o2)cc1	95
CCOc1cccc2cc(C(=O)Nc3ccc(Oc4ccccc4)cc3)c(=O)oc12	101
Cc1nc(-c2cc(S(=O)(=O)NC(C)Cc3ccco3)c(C)s2)sc1C (centres undefined)	101
COc1ccc(S(=O)(=O)n2c(SCC(=O)Nc3ccccc3F)nc3ccc(OC)cc32)cc1	111
Cc1nn(-c2nc3ccccc3[nH]2)c2c1C(c1ccc(Br)cc1)CC(=O)N2 (centres undefined)	102
COc1ccc(Br)cc1C1C(C(=O)OCCOc2ccccc2)=C(C)NC2=C1C(=O)CCC2 (centres undefined)	103
CCC(=O)Nc1cccc(N=c2ssc3c2-c2cc(C)c(C)cc2NC3(C)C)c1	108
CCOc1ccc(NC(=O)CNC(=O)CNS(=O)(=O)c2ccc3c(c2)C(C)(C)C(=O)N3C)cc1	98
Cc1cc(C2C(C#N)=C(N)N(c3ccc(Br)cc3F)C3=C2C(=O)CCC3)c(C)s1 (centres undefined)	101
O=C(O)C1C2C(=O)OC3C(Br)C1C1(CC1)C32 (centres undefined)	103
COC(=O)c1cnc(N2CCN(c3cccc(Cl)c3)CC2)c2ccccc12	102
CCOc1ccc(-c2csc(Cc3nc(-c4ccccc4)no3)n2)cc1	107
CC1(C)SC(=S)N(/N=C/c2ccco2)C1N(O)C(=O)Nc1cccc(Cl)c1 (centres undefined)	108
COc1cc(C2C(C#N)=C(N)Oc3n[nH]c(-c4cccc([N+](=O)[O-])c4)c32)cc(OC)c1OC(C)=O (centres undefined)	96
CCOc1ccc(NC(=O)CSc2nc3ccccc3c(=O)n2CCCC(=O)NCCCN2CCCC2=O)cc1	110
COc1ccc(-c2cc(C(F)(F)F)n3nc(C(=O)NCCCN4CCOCC4)cc3n2)cc1	102
CC12CC(c3ccccc3O1)C(C#N)C(=O)N2 (centres undefined)	99
COc1ccc(S(=O)(=O)N(CC(=O)N2CCN(c3ccccc3)CC2)c2ccc(Cl)cc2)cc1	107
COCCNc1nc(SCc2cc(=O)n3cc(Cl)ccc3n2)nc2ccccc12	104
Cc1c(Br)c(C(F)(F)F)nn1CC(=O)Nc1ccc(Oc2cc([N+](=O)[O-])cc([N+](=O)[O-])c2)cc1	106
O=C1C(=O)N(c2ccc(O)cc2)C(c2ccccc2F)/C1=C(/O)c1ccccc1 (centres undefined)	104
CCOCCn1cnc2sc(C(=O)N3CCCC(C(=O)OCC)C3)c(C)c2c1=O (centres undefined)	114
COc1ccc(/C=C(\NC(=O)c2ccccc2)C(=O)NCc2ccco2)cc1	99
COc1ccccc1CNC(=O)c1ccc2c(c1)nc(C)n2-c1cc(OC)c(OC)c(OC)c1	100
O=C(COc1ncnc2onc(-c3ccccc3)c12)NCc1ccccn1	101
Cc1nn(CC(=O)N2CCc3ccccc32)c(C)c1S(=O)(=O)N1CCCC(C(=O)Nc2nccs2)C1 (centres undefined)	104
COc1ccc(N(CC(=O)NCCc2ccc(OC)c(OC)c2)S(=O)(=O)c2ccccc2)c(OC)c1	120
Cc1ccccc1N1C(=O)/C(=C/c2ccc(-c3ccc([N+](=O)[O-])cc3)o2)C=C1c1ccccc1	116
CCc1nc(-c2csc(S(=O)(=O)N3CCCC(C(=O)NC4CCCCC4)C3)c2)no1 (centres undefined)	102
O=C(NCCc1ccccc1)C1CCCN(S(=O)(=O)Cc2ccccc2)C1 (centres undefined)	97
Cc1cc(N2CCCCC2)n2nc(CN3CCCC(C)C3)nc2n1 (centres undefined)	114
COC(=O)N1c2ccccc2C=Cc2ccccc21	101
CCN(CC)CCCNC(=O)c1cc2c(n(-c3ccc(F)cc3)c1=O)CCCC2=O	99
CCCS(=O)(=O)c1nc2ccc(NS(=O)(=O)c3ccc4c(c3)oc(=O)n4C)cc2s1	99
O=[N+]([O-])c1cc(S(=O)(=O)Oc2ccccc2)cc2c1-c1c(cc(S(=O)(=O)Oc3ccccc3)cc1[N+](=O)[O-])C2=NO	100
COc1ccccc1N1CCN(S(=O)(=O)c2cc(C(=O)Nc3ccc(C(C)C)cc3)ccc2F)CC1	104
CCCS(=O)(=O)c1c(S(=O)(=O)CCC)c2c3ccccc3ccn2c1C(=O)c1ccccc1	105
O=C(Nc1n[nH]c(-c2ccccc2)n1)c1ccc(Cl)cc1	98
CC(C)c1ccc(N(C)S(=O)(=O)c2ccc3[nH]cc(C(=O)NCCN4CCOCC4)c(=O)c3c2)cc1	103
COC(=O)c1ccccc1NC(=O)c1sc2nc(C)nc(N3CCN(c4ccccn4)CC3)c2c1C	104
Cc1ccc(C2CC(=O)Nc3cc(C)c(C)cc32)cc1 (centres undefined)	111
CC(C)C(=O)C1=Cc2cccc([N+](=O)[O-])c2OC1N1CCOCC1 (centres undefined)	115
Cc1cc(SCC(=O)Nc2ccc(F)cc2F)nc2ccc(S(=O)(=O)N3CCCC3)cc12	104
CCC1(C)COC2(OC1)C(=O)N(CN1CCOCC1)c1ccccc12 (centres undefined)	108

The listing continues:
SMILES	GIV-Gai inh
CN(C)c1ccc(C2N3CC4(C)CN2CC(C)(C3)C4=O)cc1 (centres undefined)	115
CC(C)c1cc(C2CCCN2S(=O)(=O)c2ccc(Cl)s2)on1 (centres undefined)	107
CCCCS(=O)(=O)N1C[C@@H]2CN(S(=O)(=O)c3cccc(C)c3)C[C@H](C1)O2	102
Cc1ccc(NC(=O)CSc2nc3cc(C(=O)NCCCOC(C)C)ccc3c(=O)n2Cc2ccco2)cc1	101
O=C(c1ccc2ccnc(N3CCN(c4ccccc4)CC3)c2c1)N1CCCC1	106
COc1ccc(-c2cn3ccc(C)cc3n2)cc1F	101
Cc1cc(C2CCCN2C(=O)c2cc(-c3ccccc3)on2)no1 (centres undefined)	102
CCc1nc(-c2csc(S(=O)(=O)Nc3ccc(Br)c(C)c3)c2)no1	102
N#CC1=CN(c2cc(F)cc(F)c2)c2ccccc2S1(=O)=O	99
COc1ccc(C2=NN(C(=O)CSc3nnc(CNC(=O)c4ccccc4F)n3C)C(c3ccc(F)cc3)C2)cc1 (centres undefined)	120
N#Cc1c(C(F)(F)F)cc(-c2cccs2)nc1SCC(=O)N1CCCCC1	114
COc1ccccc1-n1nc(C(=O)Nc2cnc3ccccc3c2)c2ccccc2c1=O	110
O=c1ccc(-c2ccc(F)cc2)nn1CCc1nc(-c2ccc(Br)cc2)no1	105
O=C1c2cc(S(=O)(=O)NCc3ccco3)cc([N+](=O)[O-])c2-c2c1cc(S(=O)(=O)NCc1ccco1)cc2[N+](=O)[O-]	111
CC(C)c1cnc2c(c1SCC(=O)OCc1ccccc1)c(=O)n(C)c(=O)n2C	108
COc1ccc(CC(=O)N2CCCC(C)(C(=O)NCc3cccc(F)c3)C2)cc1OC (centres undefined)	119
N#CC1=C(N)C(C#N)(C#N)C(c2cccc(Oc3ccccc3)c2)C2CCCC=C12 (centres undefined)	107
COc1ccc(NC(=O)CSc2nc(-c3cccs3)ccc2C#N)cc1	113
O=C(CSc1nc2[nH]ncc2c(=O)n1-c1cccc(C(F)(F)F)c1)c1ccc(Br)cc1	106
Cc1csc(-c2cc(S(=O)(=O)N3CCN(C)CC3)cn2CC(=O)N2CCCCC2)n1	105
Cc1cc(N2CCCC2)n2nc(CN3CCN(c4ccccc4)CC3)nc2n1	96
N#Cc1c2n(c3c(=O)n(CC(=O)c4ccc(Cl)cc4)cnc13)CCCCC2	108
CCOC(=O)N1CCN(C(=O)c2ccc3c(=O)n(Cc4cccc(Br)c4)c(=S)[nH]c3c2)CC1	101
COc1cc(NS(=O)(=O)c2cc3[nH]c(=O)[nH]c3cc2Cl)cc(OC)c1	112
Cn1ccc(CN2CCSCC2)cc1=O	100
O=C(Nc1nnc(CCS(=O)(=O)c2ccc3ccccc3c2)s1)c1ccc(Cl)cc1	110
O=C(Nc1ccc(F)cc1Cl)C1Oc2ccccc2NC1=O (centres undefined)	97
Cc1ccc(N2C(=O)/C(=C/c3cc(Br)ccc3O)C(=O)NC2=S)cc1C	93
O=C(NCC1COc2ccccc2O1)c1cc(=O)n(Cc2ccc(Cl)cc2)c2ccccc12 (centres undefined)	107
Cc1nc(-c2csc(S(=O)(=O)N3CCN(c4ccccc4Cl)CC3)c2)sc1C	100
COc1ccc(C2C(C#N)=C(N)Oc3n[nH]c(-c4ccc5c(c4)OCO5)c32)c(OC)c1 (centres undefined)	97
Cc1cccc(N2C(=O)CSC2c2cc3c(cc2Br)OCO3)c1 (centres undefined)	109
O=C(NCc1ccc2c(c1)OCO2)c1cccc(-c2cc(NC3CCCCC3)ncn2)c1	109
O=C(NC1CC(=O)N(c2ccc3c(c2)OCCO3)C1)C1CCCCC1 (centres undefined)	101
COc1cc(NC(=O)c2ccc3c(=O)n(Cc4ccc5c(c4)OCO5)c(=S)[nH]c3c2)cc(OC)c1OC	109
CCCN1CCN(Cc2nc3nc(C)cc(N4CCN(C)CC4)n3n2)CC1	96
O=C(NCC(F)(F)F)C1CCN(Cc2noc(-c3ccc(F)cc3)n2)CC1	109
CCOC(=O)C1=NN(c2ccc(C)cc2)C2(S1)c1ccccc1C(c1cc(C)ccc1C)=NN2c1ccccc1 (centres undefined)	110
N#CC1=C(N)OC(c2ccccc2)=C(C(=O)c2ccccc2)C1c1cccc(Br)c1 (centres undefined)	113
CN1CCc2c(sc(NC(=O)C3COc4ccccc4O3)c2-c2nc3ccccc3s2)C1 (centres undefined)	136

Quoted from the results shown for reference:
SMILES	GIV-Gai inh
O=C(Nc1ccc(F)cc1Cl)C1Oc2ccccc2NC1=O (centres undefined)	97
Cc1ccc(N2C(=O)/C(=C/c3cc(Br)ccc3O)C(=O)NC2=S)cc1C	93
O=C(NCC1COc2ccccc2O1)c1cc(=O)n(Cc2ccc(Cl)cc2)c2ccccc12 (centres undefined)	107
Cc1nc(-c2csc(S(=O)(=O)N3CCN(c4ccccc4Cl)CC3)c2)sc1C	100
COc1ccc(C2C(C#N)=C(N)Oc3n[nH]c(-c4ccc5c(c4)OCO5)c32)c(OC)c1 (centres undefined)	97
Cc1cccc(N2C(=O)CSC2c2cc3c(cc2Br)OCO3)c1 (centres undefined)	109
O=C(NCc1ccc2c(c1)OCO2)c1cccc(-c2cc(NC3CCCCC3)ncn2)c1	109
O=C(NC1CC(=O)N(c2ccc3c(c2)OCCO3)C1)C1CCCCC1 (centres undefined)	101
COc1cc(NC(=O)c2ccc3c(=O)n(Cc4ccc5c(c4)OCO5)c(=S)[nH]c3c2)cc(OC)c1OC	109
CCCN1CCN(Cc2nc3nc(C)cc(N4CCN(C)CC4)n3n2)CC1	96
O=C(NCC(F)(F)F)C1CCN(Cc2noc(-c3ccc(F)cc3)n2)CC1	109
CCOC(=O)C1=NN(c2ccc(C)cc2)C2(S1)c1ccccc1C(c1cc(C)ccc1C)=NN2c1ccccc1 (centres undefined)	110
N#CC1=C(N)OC(c2ccccc2)=C(C(=O)c2ccccc2)C1c1cccc(Br)c1 (centres undefined)	113
CN1CCc2c(sc(NC(=O)C3COc4ccccc4O3)c2-c2nc3ccccc3s2)C1 (centres undefined)	136

(list continues)
SMILES	GIV-Gai inh
COc1cc(C2CC(=O)Nc3c2c(C)nn3-c2ccc3nnc(C)n3n2)ccc1OCc1ccccc1 (centres undefined)	102
N#CC1=CN(c2ccccc2F)c2cc(F)ccc2S1(=O)=O	100
Cc1ccc(NC(=O)Cn2cnc3sc(C(=O)Nc4ccc(Br)cc4C)c(C)c3c2=O)cc1Cl	111
CCOc1ccc(C2=NN3C(C2)c2cccc(OCC)c2OC3c2cccc(Cl)c2)cc1 (centres undefined)	101
O=C(NCCc1ccccc1)c1ccc2c(c1)NC(=O)C(CS(=O)(=O)Cc1ccc(F)cc1)N2 (centres undefined)	103
COc1ccc(NC(=O)N(Cc2nnc3n2CCCCC3)c2ccccc2)cc1	100
Cc1c(NC(=O)CSc2nc3ccc(NC(=O)c4ccccc4)cc3s2)c(=O)n(-c2ccccc2)n1C	121
CCOc1cccc2c1OC(c1ccc(OC)c(OC)c1)N1N=C(c3cccs3)CC21 (centres undefined)	120
COC(=O)CSC1=C(C#N)C(c2ccc(C)o2)CC(=O)N1 (centres undefined)	102
CCn1cnc2sc(C(=O)N3CCC(C)CC3)c(C)c2c1=O	104
Cc1[nH]nc(-c2c(C)sc(C)c2S(=O)(=O)N2CCN(c3ccccc3F)CC2)c1C	103
CC(C)CNC(=O)C1CCCN(C(=O)c2ccc(NC(=O)C(C)(C)C)cc2)C1 (centres undefined)	108
S=c1n(CN2CCC3(CC2)OCCO3)nc(-c2ccc(Cl)cc2)n1-c1ccccc1	107
CCCc1[nH]n(-c2ccc(F)cc2)c(=O)c1C=Nc1cc(C(=O)OC)ccc1C(=O)OC	109
Cc1csc(-c2cc(S(=O)(=O)NCc3ccc4c(c3)OCO4)cn2CC(=O)N2CCCC2)n1	107
Cc1ccc2c(c1)NC(=O)c1cc(S(=O)(=O)N3CCOCC3)ccc1O2	107
CC(=O)n1c2c(c3ccccc31)OC(N)=C(C#N)C2c1cccc(Cl)c1 (centres undefined)	116
O=C(C1CC(=O)N(c2ccccc2)C1)N1CCN(c2ncnc3c2nnn3-c2ccccc2)CC1 (centres undefined)	97
O=c1cc(CSc2nc(Nc3ccc(F)c(F)c3)c3ccccc3n2)nc2ccccn12	103
O=c1oc2ccc(Cl)cc2cc1-c1nc(-c2ccccc2)cs1	122
CCOC(=O)c1cnc2c(C)cc(C)cc2c1Nc1ccc(C)cc1C	106
C#CCOc1ccc(C2CC(=O)Nc3c2cnn3-c2ccc3nnc(C)n3n2)cc1 (centres undefined)	102

The list is partial, so the mix of outcomes need not match the whole.
